Screens as filed in PubChem.
rRNA inh HTS – inhibitors of bacterial rRNA selective over humanized ribosomes; 350,000 tested, 1.6% active; GFP signal change (wild-type ribosome), % (test concentration not listed); AID 720706; E. coli WT GFP vs humanized-ribosome RFP mutants, fluorescence, 24 h; active compounds read low; DMSO median 0, no signal -100;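 active means significant combined selectivity score with lowered wild-type GFP, culture density cut under 30%, mutant RFP and density less affected; inactive means any of these conditions unmet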; further: one replicate is shown; some compounds called inactive have numbers as strong as hits
FGF22 binding – binders of recombinant human FGF22 by thermal shift. 340,000 tested, 1.5% active. SYPRO orange fluorescence; percent of sucrose octasulfate shift, DMSO zero. Q9HCT0. AID 651658. calls only at 9.99 µM;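 active means melting point raised past a set limit in the mean and every replicate; three in four hits are not shown here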
Target sequence (Q9HCT0 whole entry, looked up): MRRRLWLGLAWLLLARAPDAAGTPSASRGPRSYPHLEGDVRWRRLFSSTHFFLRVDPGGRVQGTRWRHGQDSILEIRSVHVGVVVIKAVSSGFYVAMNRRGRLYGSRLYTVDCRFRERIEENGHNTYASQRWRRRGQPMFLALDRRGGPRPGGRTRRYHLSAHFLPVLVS
MLL AF4-AF9 inh – blocks AF4 peptide binding to human AF9. AlphaScreen, biotin-AF4 peptide binding to FLAG-AF9. AID 651704. inhibition, % at 10 µM. 350,000 tested, 0.47% active;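 active means every replicate reaching a set inhibition limit, whatever the replicate mean, cut at about 25% in these data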;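 further: 0% = plate neutral control median and 100% = total signal loss; the record names both 10 and 1 µM as test concentration; the first replicate is given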
Target sequence (P42568 whole entry, looked up): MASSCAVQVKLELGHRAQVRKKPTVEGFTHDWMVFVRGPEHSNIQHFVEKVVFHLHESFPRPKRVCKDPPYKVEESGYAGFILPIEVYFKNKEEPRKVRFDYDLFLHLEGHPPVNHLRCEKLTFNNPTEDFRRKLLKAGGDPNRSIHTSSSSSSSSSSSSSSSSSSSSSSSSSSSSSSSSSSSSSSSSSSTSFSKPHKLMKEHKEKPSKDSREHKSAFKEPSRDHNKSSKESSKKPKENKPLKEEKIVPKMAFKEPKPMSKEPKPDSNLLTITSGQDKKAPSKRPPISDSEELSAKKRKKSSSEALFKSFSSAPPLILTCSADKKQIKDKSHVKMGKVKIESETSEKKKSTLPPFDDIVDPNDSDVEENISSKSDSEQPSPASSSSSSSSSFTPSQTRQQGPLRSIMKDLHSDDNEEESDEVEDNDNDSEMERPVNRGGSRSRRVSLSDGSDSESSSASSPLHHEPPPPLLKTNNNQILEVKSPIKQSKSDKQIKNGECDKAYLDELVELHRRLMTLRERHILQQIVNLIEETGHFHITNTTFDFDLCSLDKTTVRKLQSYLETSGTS
rRNA inh HTS OD600 – recorded beside rRNA inh HTS, whose call it bears; OD600 change, %; measured here: OD600 growth;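 optical density of the mix in the first replicate; 0 = DMSO median and -100 = no signal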
rRNA inh HTS RFP – recorded beside rRNA inh HTS, whose call it bears; RFP signal change, %; measured here: RFP humanized mutant strains;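 first replicate; 0 = DMSO median and -100 = no signal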
* marks the source's active call; other numbers are inactive results; i = inactive; nt = no result given; + = active, no number; & = joins results of further samples.

mol,rRNA inh HTS,rRNA inh HTS OD600,rRNA inh HTS RFP,FGF22 binding,MLL AF4-AF9 inh
C[C@H](CO)N1C[C@H](C)[C@@H](CN(C)Cc2ccc3c(c2)OCO3)Oc2ccc(NC(=O)CCCCCC(=O)Nc3ccccc3N)cc2CC1=O,-1,0,2.5,i,0.2
CCNC(=O)C1CCCN(C(=O)c2ccc(C#N)cc2)CC1 (configuration not stated),13,19,1.0,i,-0.1
CCN1[C@H](C(=O)OC)[C@@H](CO)[C@@H]2Cn3c(ccc(-c4ccc(F)cc4)c3=O)[C@@H]21,2,8,0.2,i,0.1
CO[C@@H]1CC[C@H]2CCN(C)C(=O)[C@@H](C)N(C)C(=O)c3cc(C#N)ccc3OC[C@@H]1O2,1,3,0.8,i,0.0
Cc1noc(C)c1NC(=O)N(C)C[C@@H]1OCCCC[C@H](C)Oc2ccc(NS(=O)(=O)c3cccs3)cc2C(=O)N([C@H](C)CO)C[C@@H]1C,-4,1,-1.3,i,-2.9
COc1ccc2c3c([nH]c2c1)[C@@H](CO)N(Cc1ccccc1)CC31CN(C)C1,1,-5,3.1,i,13
CN(C)C(=O)CCc1ccc2c3c([nH]c2c1)[C@]1(C)[C@@H](C(=O)N2CCOCC2)C[C@H](CC(=O)NCC24CC5CC(CC(C5)C2)C4)C(=O)N1CC3,-1,-7,7.3,i,1.2
CC(C)NC(=O)C1(C)Cc2c(-c3cccc(C(N)=O)c3)ccnc2O1 (configuration not stated),6,5,-1.9,i,1.1
COCC#Cc1ccc([C@@H]2[C@@H](CO)N3C(=O)CN(C(=O)C4CCCCC4)C[C@@H]23)cc1,3,-3,-0.5,i,-1.7
CO[C@@H](CN(C)C(=O)c1ccccc1F)[C@@H](C)CN([C@H](C)CO)S(=O)(=O)c1ccccc1,-1,6,0.8,i,-26
CCCC(=O)Nc1ccc2c(c1)OC[C@@H](C)N(Cc1ccccc1)C[C@@H](C)[C@H](OC)CN(C)C2=O,-1,-14,4.2,i,1.2
CCN(CC)S(=O)(=O)c1ccc(Cl)c(C(=O)NNC(=O)c2csc(N3CCOCC3)n2)c1,4,5,0.6,i,2.3
Cc1ccc(S(=O)(=O)Nc2cccc3c2O[C@H](CN(C)Cc2ccc(Cl)c(Cl)c2)[C@H](C)CN([C@@H](C)CO)C3=O)cc1,-1,-5,12,i,-5.8
CCCC(=O)Nc1ccc2c(c1)C(=O)N(C)[C@@H]1CC[C@H](CC(=O)NCCCN(C)C)O[C@H]1CO2,2,10,1.4,i,1.5
Cc1cn(CC(=O)NCc2ccccn2)c(=O)[nH]c1=O,12,6,0.2,nt,0.9
O=C(CN1CCOCC1)N1CCCCN2[C@H](CO)[C@@H](c3ccc(-c4ccccc4F)cc3)[C@H]2C1,-1,11,-2.2,i,1.4
O=C(C[C@H]1CC[C@@H]2[C@H](COC[C@H](O)CN2C(=O)C2CCOCC2)O1)NCc1ccncc1,7,6,12,i,1.5
CO[C@H]1CN(C)C(=O)c2ccc(NC(=O)Nc3c(C)noc3C)cc2OC[C@H](C)N(CCC(F)(F)F)C[C@@H]1C,-2,-3,-0.3,i,0.5
C[C@H](CO)N1C[C@H](C)[C@H](CN(C)C(=O)C2CCCCC2)OCc2cn(nn2)CCCC1=O,1,4,-2.1,i,-0.8
COc1ccc(S(=O)(=O)N(C)C[C@@H]2OCCCC[C@@H](C)Oc3ccc(NC(=O)C4CCCCC4)cc3C(=O)N([C@H](C)CO)C[C@H]2C)cc1,-4,-1,1.1,i,-0.1
CN(C)Cc1c(C(C)(C)O)[nH]c2cc(F)ccc12,7,3,-0.4,i,2.6
CCCNC(=O)N1[C@H](C#N)[C@@H](c2ccccc2-c2ccc(OC)cc2)[C@@H]1CO,-3,-8,2.8,i,-0.7
C[C@@H]1CN([C@@H](C)CO)C(=O)c2cccc(NC(=O)NC3CCCCC3)c2O[C@@H]1CN(C)Cc1ccccc1,0,-2,-0.7,i,-3.7
CC(C)NC(=O)N(C)C[C@H]1Oc2ccc(NC(=O)Cc3ccccc3)cc2C(=O)N([C@@H](C)CO)C[C@H]1C,2,3,-1.0,i,-1.9

Record cards (already shown). Order of values: rRNA inh HTS, rRNA inh HTS OD600, rRNA inh HTS RFP, FGF22 binding, MLL AF4-AF9 inh
Record of CC(C)NC(=O)C1(C)Cc2c(-c3cccc(C(N)=O)c3)ccnc2O1 (configuration not stated) → 6, 5, -1.9, i, 1.1
Record of CCCNC(=O)N1[C@H](C#N)[C@@H](c2ccccc2-c2ccc(OC)cc2)[C@@H]1CO → -3, -8, 2.8, i, -0.7

Other entries
mol,rRNA inh HTS,rRNA inh HTS OD600,rRNA inh HTS RFP,FGF22 binding,MLL AF4-AF9 inh
COc1ccc(OC)c(S(=O)(=O)NC(=O)C2(C)CCN2C(=O)Cc2ccccc2)c1 (configuration not stated),10,13,-1.7,i,-6.7
C[C@@H]1CN([C@H](C)CO)C(=O)Cc2cc(NC(=O)CCN3CCOCC3)ccc2O[C@H]1CN(C)S(=O)(=O)c1ccc(F)cc1,-1,-4,2.2,i,0.1
O=C(Nc1ccccc1F)N1C[C@@H]2[C@H](c3ccccc31)[C@@H](CO)N2C(=O)c1ccccn1,1,0,-0.7,i,-22
COc1cc(NC(=O)CCC(=O)N2CCN(S(=O)(=O)c3ccc(C)cc3)CC2)cc(OC)c1,-9,-6,-15,i,1.7
C[C@H]1CN([C@@H](C)CO)C(=O)CCCn2nncc2CO[C@@H]1CN(C)Cc1ccc(Oc2ccccc2)cc1,-6&-4,-16&-12,2.9&3.3,i,-2.5&1.6
O=C(C[C@@H]1C=C[C@@H](NS(=O)(=O)c2ccc(F)cc2)[C@@H](CO)O1)NCCc1ccncc1,0,-5,-3.1,i,-1.6
CCCNC(=O)C[C@H]1CC[C@H]2[C@@H](COC[C@@H](O)CN2S(=O)(=O)c2ccccc2F)O1,-1,7,-1.6,i,4.8
CO[C@H]1CC[C@@H]2CCN(C)C(=O)[C@@H](C)[C@@H](OC)CN(C)C(=O)c3cccc(C#N)c3OC[C@@H]1O2,-3,-2,-1.3,i,-2.4
N#Cc1cccc(-c2ccc([C@@H]3[C@@H](CO)N4CCCCN(C(=O)Nc5cccc(F)c5)C[C@@H]34)cc2)c1,-5,-24,22,i,-0.4
C[C@@H]1CN([C@@H](C)CO)C(=O)c2cc(C#Cc3ccccc3)cnc2O[C@@H]1CN(C)C(=O)c1ccccc1,4,0,2.0,i,-9.9
CC1CCCN(c2cccc3c2S(=O)(=O)N(Cc2cccc(Cl)c2)[C@@H](C)[C@H](c2ccccc2)O3)C1 (some centres not stated),10,4,4.1,i,-2.3
COc1ccccc1C(=O)Nc1ccc2c(c1)OC[C@@H](C)N(C(C)=O)C[C@@H](C)[C@H](OC)CN(C)C2=O,-3,-6,1.3,i,-0.7
CCCNC(=O)N(C)C[C@H]1Oc2cc(-c3cncnc3)ccc2S(=O)(=O)N([C@H](C)CO)C[C@@H]1C,3,4,-1.0,i,-1.5
Cc1ccc(S(=O)(=O)Nc2ccc3c(c2)C(=O)N([C@@H](C)CO)C[C@@H](C)[C@H](CN(C)S(C)(=O)=O)O3)cc1,0,8,1.1,i,-9.0
COc1ccc(CN(C)C[C@@H]2OCCCC[C@@H](C)Oc3ccc(NS(=O)(=O)c4cn(C)cn4)cc3C(=O)N([C@H](C)CO)C[C@@H]2C)cc1,6,14,-1.0,i,-5.7
CC(C)NC(=O)N(C)C[C@@H]1Oc2ccc(NC(=O)Cc3cn(C)c4ccccc34)cc2CC(=O)N([C@@H](C)CO)C[C@@H]1C,3,4,-2.1,i,-0.7
C[C@@H]1CN([C@H](C)CO)C(=O)c2c(c3ccccc3n2C)-c2ccccc2CO[C@@H]1CN(C)Cc1ccc(O)cc1,-7&2,-12&-8,-1.4&2.5,i,9.2
COCC(=O)N1C[C@@H](C)[C@H](OC)CN(C)C(=O)c2ccc(NC(=O)c3ccccc3)cc2OC[C@H]1C,-1,4,-1.1,i,-11
Cc1noc(C)c1S(=O)(=O)Nc1ccc2c(c1)C(=O)N([C@H](C)CO)C[C@H](C)[C@@H](CN(C)S(=O)(=O)c1ccc(F)cc1)OCCCC[C@@H](C)O2,1,-2,-1.9,i,-2.7
Cc1ccc(S(=O)(=O)Nc2ccc3c(c2)C(=O)N([C@H](C)CO)C[C@H](C)[C@H](CN(C)S(=O)(=O)c2ccc(C)cc2)OCCCC[C@@H](C)O3)cc1,2,8,-0.8,i,3.7
C/C=C/c1ccc([C@@H]2[C@H](CO)N3CCCCN(S(=O)(=O)c4ccc(OC)cc4)C[C@@H]23)cc1,0,8,-1.5,i,3.2
Cn1cnc(S(=O)(=O)N2CCCCC2c2cc(C(=O)NCc3ccc(Cl)c(Cl)c3)no2)c1 (configuration not stated),2,-4,-3.2,i,-1.7
CC1CCN(S(=O)(=O)c2ccc(NC(=O)CCN3C(=O)C4CC=CCC4C3=O)cc2)CC1 (configuration not stated),5,-3,4.1,i,0.6
CN1CCCCN2[C@H](CO)[C@H](c3ccc(Br)cc3)[C@@H]2C1,2,4,-1.2,i,-0.4
N#C[C@H]1[C@H](c2ccc(C3=CCCCC3)cc2)[C@@H](CO)N1C(=O)c1cccc(F)c1,6,-26,19,i,3.3
O=C(C[C@H]1C=C[C@H](NC(=O)Cc2cccnc2)[C@H](CO)O1)NCc1ccc2c(c1)OCO2,1,10,-0.2,i,-0.8
C[C@@H]1CN([C@@H](C)CO)C(=O)c2cc(C#CC3CC3)cnc2O[C@@H]1CN(C)C(=O)CC1CC1,-2,7,0.0,i,-3.2
Cc1noc(C)c1S(=O)(=O)Nc1ccc2c(c1)C(=O)N([C@@H](C)CO)C[C@@H](C)[C@@H](CN(C)C(=O)CCC(F)(F)F)OCCCC[C@H](C)O2,-2,-5,-1.4,i,1.4
CC(C)(C)c1ccc(S(=O)(=O)NC(=O)C2(C)CCN2C(=O)Cc2cccc3ccccc23)cc1 (configuration not stated),-6,-12,-0.3,+,-7.2
C[C@@H]1CN([C@H](C)CO)C(=O)c2cc(NC(=O)Nc3ccc(F)cc3)ccc2O[C@@H](C)CCCCO[C@H]1CN(C)Cc1ccc(Cl)c(Cl)c1,7,7,1.9,i,2.3
O=C(C[C@H]1CC[C@@H](NS(=O)(=O)c2ccc(F)cc2)[C@H](CO)O1)N1CCc2ccccc2C1,1,-2,-1.9,i,-1.6
C[C@H]1CN([C@@H](C)CO)C(=O)c2cc(-c3cccc(F)c3)cnc2O[C@@H]1CN(C)C,7,-6,-3.1,i,-0.2
C[C@@H]1CCCCO[C@@H](CN(C)C(=O)Nc2ccc(C(F)(F)F)cc2)[C@@H](C)CN([C@H](C)CO)C(=O)c2cc(NC(=O)CCC(F)(F)F)ccc2O1,6,10,-4.3,i,-1.5
CCNC(=O)C1(C)CCCN1C(=O)c1c(F)cccc1F (configuration not stated),4,11,4.5,i,-3.4
N#C[C@H]1[C@H](c2ccccc2-c2cccc(F)c2)[C@@H](CO)N1C(=O)CN1CCOCC1,2,-3,1.4,i,-3.8
C[C@@H]1CN([C@H](C)CO)C(=O)CCCn2nncc2CO[C@@H]1CN(C)Cc1ccc(Cl)c(Cl)c1,-9,-21,2.0,i,2.1

Two of these compounds in a different format:
rRNA inh HTS,rRNA inh HTS OD600,rRNA inh HTS RFP,FGF22 binding,MLL AF4-AF9 inh,compound
7,-6,-3.1,i,-0.2,C[C@H]1CN([C@@H](C)CO)C(=O)c2cc(-c3cccc(F)c3)cnc2O[C@@H]1CN(C)C
6,10,-4.3,i,-1.5,C[C@@H]1CCCCO[C@@H](CN(C)C(=O)Nc2ccc(C(F)(F)F)cc2)[C@@H](C)CN([C@H](C)CO)C(=O)c2cc(NC(=O)CCC(F)(F)F)ccc2O1

(further entries)
mol,rRNA inh HTS,rRNA inh HTS OD600,rRNA inh HTS RFP,FGF22 binding,MLL AF4-AF9 inh
C[C@H](CO)N1C[C@H](C)[C@H](CN(C)C(=O)Nc2ccccc2F)Oc2ncc(/C=C/c3ccccc3)cc2C1=O,-9,-13,13,i,9.1
CCOC(=O)CNC(=O)N(C)[C@H]1C[C@H]2c3[nH]c4ccccc4c3CCN2C[C@H]1[C@H](C)O,10,8,-0.3,i,0.4
COC(=O)C[C@H]1C[C@H]2c3cc(NC(=O)c4cccnc4)ccc3O[C@H]2[C@@H](CO)O1,-2,-3,3.3,i,-2.5
C[C@H]1CN([C@@H](C)CO)C(=O)c2cccc(NC(=O)NC3CCCCC3)c2O[C@@H]1CN(C)C(=O)Nc1ccc(F)cc1,-2,-4,-0.4,i,-3.2
COc1ccc2c(=O)c3c(=O)n(Cc4ccccc4)c(C(C)C)nc3oc2c1,0,0,0.4,i,-3.1
CC(C)Oc1cc(F)ccc1-c1cc(C(=O)NCc2ccccn2)[nH]n1,-3,-16,-1.0,i,-9.8
Cc1noc(C)c1NC(=O)N(C)C[C@@H]1Oc2ccc(NC(=O)Nc3ccc4c(c3)OCO4)cc2CC(=O)N([C@H](C)CO)C[C@H]1C,3,2,1.4,i,-11
COc1ccc2c3c([nH]c2c1)[C@@H](CO)N(C(=O)c1ccncc1)CC31CN(C(=O)Nc2cccc(F)c2)C1,-1,-8,3.6,i,0.8

The list is partial, so the mix of outcomes need not match the whole.
